RGS16-Gao HTS: modulates binding between human RGS16 and Galphao; O15492+P09471; bead-based flow cytometry RGS16-Galphao binding, fluorescence; actives lie on both sides; binding response (% of control), % at 10 µM; actives 0.38% (n = 220,000); AID 1441;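 active means below 25% or above 175%, edge rows of some plates excepted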;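 further: Galphao activated by GDP with aluminum fluoride before binding; 100% = wells without compound and 0% = beads without RGS; some results beyond the cut were filed as inactive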
Target sequence (O15492 whole entry, looked up): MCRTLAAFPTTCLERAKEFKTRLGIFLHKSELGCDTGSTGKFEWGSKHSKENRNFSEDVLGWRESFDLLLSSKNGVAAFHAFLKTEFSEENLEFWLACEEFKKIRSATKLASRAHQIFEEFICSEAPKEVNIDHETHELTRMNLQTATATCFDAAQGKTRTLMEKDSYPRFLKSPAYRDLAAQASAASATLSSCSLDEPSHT
Target sequence (P09471 whole entry, looked up): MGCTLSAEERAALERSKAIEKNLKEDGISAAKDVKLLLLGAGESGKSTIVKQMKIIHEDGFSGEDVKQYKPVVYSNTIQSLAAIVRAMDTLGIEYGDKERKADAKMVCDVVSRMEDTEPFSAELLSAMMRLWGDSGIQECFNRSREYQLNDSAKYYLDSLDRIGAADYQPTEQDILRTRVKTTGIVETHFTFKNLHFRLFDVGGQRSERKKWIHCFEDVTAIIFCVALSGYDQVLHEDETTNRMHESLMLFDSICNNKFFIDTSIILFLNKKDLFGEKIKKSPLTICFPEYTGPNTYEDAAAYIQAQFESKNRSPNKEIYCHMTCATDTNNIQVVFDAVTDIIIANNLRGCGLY
INS promoter inh: TRM-6 insulin promoter activity inhibition | AID 1273 | actives 0.9% (n = 130,000) | inhibition, % at 2 µM | TRM-6 cells (human fetal islet line), insulin promoter-eGFP reporter, imaging; reporter expression induced with tamoxifen;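 active means inhibition above the mean plus 3 SD, with well images judged a real hit on visual review, cut at about 60% in these data, passing the limit was not always enough; inconclusive means inhibition over the cutoff but images rejected on review; inactive means inhibition not above the cutoff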
HSV augment: increases HSV replication in cells. maximum fold increase. actives 0.005% (n = 220,000). HSV replication augmentation in cells, fold increase. AID 1956;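 active means peak rise of 1.5-fold or more in the series; inconclusive means self-fluorescent or not available for retest; tested in PC3 cells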;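 further: first round at 10 µM; read as green reporter fluorescence; hits show the peak of a series up to 25 µM; 1 = signal of infected wells without compound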
PKD1 kinase inh: PKD1 (human) kinase inhibition; Q15139; PKD1 kinase fluorescence polarization assay; inhibition, %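 (about 10 µM by stock and volumes)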; actives 0.056% (n = 200,000);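 active means inhibition of 50% or more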;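 further: controls were vehicle for no effect and a reference inhibitor for full effect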
GALR2 agonist: activates the human galanin receptor 2 | GALR2-expressing cells, agonist activation read-out | O43603 | AID 803 | activation, %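 (tested at 5 µM)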 | actives 0.48% (n = 140,000);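 active means above mean plus 3 SD of all compounds, about 5% in these data, not always enough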;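 further: 0% = vehicle buffer wells and 100% = reference agonist at full effect; tested in CHO reporter cells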
Target sequence (O43603 whole entry, looked up): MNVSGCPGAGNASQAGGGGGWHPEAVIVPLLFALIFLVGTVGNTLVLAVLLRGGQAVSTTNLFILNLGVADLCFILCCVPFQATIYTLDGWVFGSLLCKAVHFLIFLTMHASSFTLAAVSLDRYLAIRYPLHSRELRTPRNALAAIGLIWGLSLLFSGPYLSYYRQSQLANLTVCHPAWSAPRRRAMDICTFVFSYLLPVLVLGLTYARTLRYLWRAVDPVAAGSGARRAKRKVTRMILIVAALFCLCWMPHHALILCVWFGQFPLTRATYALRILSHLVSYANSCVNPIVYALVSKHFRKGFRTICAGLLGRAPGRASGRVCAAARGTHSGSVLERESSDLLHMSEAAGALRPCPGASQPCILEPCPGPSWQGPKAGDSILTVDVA
INS promoter inh cell count: second read-out of INS promoter inh, no call of its own (marks repeat the call); normalized cell count, %; measured here: cell count, toxicity; reference of the scale not given here;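 cells exposed to compound for 48 h; stained nuclei by imaging scaled within each plate; lower means fewer cells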
HSV augment primary fold: recorded beside HSV augment, whose call it bears; fold increase; compound at 10 µM; measured here: primary screen fold increase 10 uM; tested in PC3 cells;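 GFP signal in the first replicate; 1 = infected wells without compound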
An asterisk follows results filed as active; i = inactive; ? = inconclusive; . = not tested or not shown.

SMILES	RGS16-Gao HTS	INS promoter inh	INS promoter inh cell count	HSV augment	HSV augment primary fold	PKD1 kinase inh	GALR2 agonist
O=C(NCc1ccco1)/C(=C\C=C\c1ccccc1)NC(=O)c1ccco1	94	.	.	i	0.91	.	.
CNC(=O)C(=O)NCC1OCCCN1S(=O)(=O)c1cccs1 (stereo unspecified)	108	4	83	i	0.94	-12	-0.1
COc1ccccc1N1CCN(C(=O)CCCC2=NS(=O)(=O)c3ccccc3N2)CC1	98	.	.	.	.	-7	-0.5
Cn1cccc1/C=N/NC(=O)CNc1ccc2ccccc2c1	101	.	.	i	1	.	.
Cc1ccc(-n2c(SCC(=O)N3CC(=O)Nc4ccccc43)nc3ccccc3c2=O)cc1	123	.	.	i	1.1	-7	-0.5
O=C(CN1C(=O)c2ccccc2C1=O)Nc1sc2c(c1C(=O)NCC1CCCO1)CCC2 (stereo unspecified)	104	-36	52	i	0.91	0	-1.4
O=C(N/N=C\c1ccco1)Nc1cccc(Cl)c1	163	-14	80	i	0.98	-1	-0.9
CN(C(=O)c1ccc2c(=O)n3c(nc2c1)CCCCC3)c1ccccc1Cl	98	.	.	i	0.99	.	.
COCCNC(=O)COC(=O)c1[nH]c(C)c(C(C)=O)c1C	104	17	91	i	0.9	-3	-1.9
Clc1ccc(Nc2nc(-c3cccs3)cs2)nc1	101	-40	90	i	1.1	0	-0.2
CCn1cc(C(=O)NCCCOC)c(=O)c2cc(S(=O)(=O)N(C)C3CCCCC3)ccc21	100	.	.	i	0.94	-8	1.1
Cc1nc(SC(C)C)[nH]c(=O)c1Cc1ccccc1	103	-41	120	i	0.9	-10	-2.2
CC(=O)NC(=S)Nc1cccc(S(=O)(=O)NC2=NCCC2)c1	108	-29	110	i	0.92	0	-1.2
COc1ccc2nccc(/C=C/c3ccnc4ccc(OC)cc34)c2c1	102	.	.	i	0.96	.	.
CCc1ccc(OCC(=O)N/N=C(\C)c2ccc(O)cc2O)cc1	97	.	.	i	0.92	-3	.
COc1ccc(-c2nc(CS(=O)CC(=O)NCCCN3CCCC3)c(C)o2)cc1OC (stereo unspecified)	101	.	.	i	0.76	-4	-1.8
COC(=O)[C@@H]1CCCN1Cc1c(C(=O)N2CCCCC2)nc2c(C)cccn12	104	.	.	i	0.77	-11	.
CC(NCC(c1ccco1)N1CCCCC1)C(=O)NC1CCCC1 (stereo unspecified)	100	.	.	i	0.94	2	.
O=C(Cn1nc(C(F)(F)F)c2c1CCC2)N1CCN(c2ccccc2)CC1	99	-14	59	i	0.77	12	-1.0
CC1(C)CC(=O)C2=C(C1)c1c(ccc3ccccc13)NC2c1ccc(Br)o1 (stereo unspecified)	100	-10	71	i	1	5	1.0
COCc1c(Br)c(C)nc(OCC(=O)N/N=C/c2ccc(C)o2)c1C#N	97	.	.	i	1	-6	.
COc1cc2c(cc1OC)CN(C(=S)Nc1ccccc1)CC2	99	-16	56	i	1.1	0	-0.2
NC(=O)c1ccsc1NC(=O)COC(=O)CCOc1ccccc1	102	.	.	i	0.97	.	.
Cc1nn(CC(=O)N2CCN(Cc3ccccc3)CC2)c(=O)c2ccccc12	101	.	.	i	0.91	-7	-0.9
CCOC(=O)CC(=O)CSc1nc2c(cc1C#N)CCCCCC2	105	.	.	i	0.81	.	.
CCOC(=O)N/N=C(/c1ccccc1)C1CCCCC1	97	.	.	i	1	0	.
C/C(=N/NC(=O)c1sc(NS(=O)(=O)c2ccccc2)nc1C)c1ccc(F)cc1	100	-7	109	i	0.99	2	-1.8
Cc1csc(NC(=O)CSc2nnc(C)n2Cc2ccco2)n1	93	12	100	i	0.86	2	-1.6
COc1ccc(C2C(C(=O)N3CCCCC3)CCC(=O)N2c2cc(OC)c(OC)c(OC)c2)cc1 (stereo unspecified)	108	-40	97	i	0.97	-10	-0.5
CC(=O)NNc1nc(-c2ccccc2)cs1	100	-23	117	i	0.99	0	.
CN(C)c1ccc(-c2noc(C3CCN(S(=O)(=O)c4cccc(Cl)c4)CC3)n2)cc1	100	.	.	i	0.86	-22	-0.7
CC(C)(C)NCC(O)COCc1ccc(Cl)cc1 (stereo unspecified)	107	-10	123	i	1	-2	-0.2
OC(C#CCCN1CCCCC1)(c1ccccc1)C1CCCCC1 (stereo unspecified)	99	.	.	i	0.93	.	.
O=C(Nc1nccs1)c1ccc(COc2ccccc2Cl)o1	92	.	.	i	0.91	-2	.
O=C(CCn1nc(-c2ccc(Cl)cc2)c2ccccc2c1=O)NCC1CCCO1 (stereo unspecified)	95	26	113	i	1	-8	-1.6
O=S1(=O)CCC(NC(=S)Nc2ccc3ccccc3c2)C1 (stereo unspecified)	100	.	.	i	0.9	.	.
Cc1cc(C(=O)CSc2nnc(NCc3ccccc3)s2)c(C)n1C	93	.	.	i	0.85	-12	-1.8
Cc1cc2n(n1)C(c1ccco1)Nc1ccccc1-2 (stereo unspecified)	103	-71	155	i	0.85	-13	-2.3
O=C(Nc1ccc(F)cc1)NC1(C(=O)NCc2ccc3c(c2)OCO3)CCCCC1	37	-148	93	i	0.98	7	-1.4
CCCCn1nnc(N(C(=O)c2cccs2)C(=O)c2cccs2)n1	99	.	.	i	0.86	6	.
COc1ccc(/C=C2\C(=O)NC(=S)N2C(=O)c2ccc(F)cc2)cc1	110	.	.	?	.	-11	-0.2
CCN(CC)S(=O)(=O)c1cccc(C(=O)Nc2nnc(C)s2)c1	115	69	82	i	1.1	0	.
Cc1ccc(S(=O)(=O)NC(C)C(=O)Nc2ccccc2C(=O)N2CCCC2)cc1 (stereo unspecified)	102	.	.	i	0.87	6	-0.2
CCN(CC)S(=O)(=O)c1cccc(NC(=O)Nc2cccc(C(F)(F)F)c2)c1	107	-32	123	i	0.96	0	-1.7
CC(C)CC(=O)NNC(=O)C(C)C	106	9	125	i	1.1	11	-0.2
COc1ccc(Cn2c(C3CC3)nc3ccc(NC(C)=O)cc3c2=O)cc1	90	26	79	i	0.93	0	-1.4
COC(=O)/C=C/C(=O)N1CCN(c2ccccc2C)CC1	97	40	130	i	0.83	-4	-1.7
O=C(Nc1ccccc1N1CCN(c2ccc(F)cc2)CC1)C12CC3CC(CC(C3)C1)C2	98	-2	118	i	0.82	-1	-1.0
COC(=O)CCCCCCCCC(O)C[N+]1(C)CCOCC1 (stereo unspecified)	123	.	.	i	0.93	.	.
CC(=O)NS(=O)(=O)c1ccc(NC(=O)/C=C/c2ccccc2)cc1	103	.	.	i	0.89	-7	.

(more compounds)
SMILES	RGS16-Gao HTS	INS promoter inh	INS promoter inh cell count	HSV augment	HSV augment primary fold	PKD1 kinase inh	GALR2 agonist
COc1ccccc1NC(=O)CSC(N)=O	78	38	124	i	0.91	2	-0.9
Cc1[nH]c2ccccc2c1/C=C/c1nc2ccccc2c(=O)[nH]1	96	.	.	i	0.81	.	.
CC(=O)Nc1nc(C(=O)Nc2c(C)n[nH]c2C)cs1	102	.	.	i	0.82	6	-1.2
O=C1C2(CCC13COC(c1ccc(O)cc1)OC3)COC(c1ccc(O)cc1)OC2 (stereo unspecified)	100	.	.	i	0.99	4	-2.2
CC(C)c1ccc(/C=N/NC(=O)c2ccccc2Cl)cc1	104	.	.	i	0.69	0	.
O=C(c1cccc(C(F)(F)F)c1)N1CCOC12CCN(c1ncc(C(F)(F)F)cc1Cl)CC2	95	.	.	i	0.88	-6	-1.2
CCOC(=O)c1c(N)sc(C(=O)N2CCCCC2)c1C	106	0	53	i	0.98	-12	-2.0
NS(=O)(=O)c1ccc(NC(=O)COC(=O)COc2ccc(Br)cc2)cc1	99	.	.	i	1.1	.	.
CCc1cc(-c2nc(N)ncc2-c2ccc(Br)cc2)c(O)cc1OC	98	.	.	i	0.8	.	.
CC1CCN(C(=O)C2CCCCN2S(=O)(=O)c2cccc([N+](=O)[O-])c2)CC1 (stereo unspecified)	101	.	.	i	0.97	-3	.
CCOc1ncccc1C(=O)Nc1ccccc1F	107	.	.	i	1	.	.
COc1cc(C2CC(c3cccnc3)=NN2c2ccc(F)cc2)cc(OC)c1OC (stereo unspecified)	91	.	.	i	0.94	-4	.
CC1Cc2nc(SCC(=O)c3ccccc3)n(Cc3ccccc3)c(=O)c2S1 (stereo unspecified)	107	.	.	i	0.85	-4	-2.1
CC(=O)c1c(N2CCN(Cc3ccccc3)CC2)[nH]c(-c2ccccc2)nc1=S	98	.	.	i	0.86	-11	-1.4
Cc1onc(-c2c(Cl)cccc2Cl)c1C(=O)N/N=C(\N)COc1ccc(Cl)cc1	102	-23	105	i	0.84	2	-3.0
CCSc1nnc(-c2ccc(C)cc2)c2ccccc12	104	.	.	i	0.96	12	0.3
C#CCN(C)CC/C=C1\c2ccccc2CSc2ccccc21	30	33	60	i	0.79	-8	-1.4
CN1C(=O)C(O)(C2OC(C)(C)CCC2=O)c2ccccc21 (stereo unspecified)	109	.	.	i	1.1	-3	-0.2
Cc1ccc(-n2nnnc2-c2cnoc2-c2cccc(F)c2)cc1	71	38	108	i	0.93	-1	-2.9
Cc1nn(C)c(C(=O)Nc2ccc(Br)cc2F)c1Br	62	-85	120	i	0.88	-4	-1.6
O=C(CCCN1C(=O)CCC1=O)Nc1ccc(Cl)c(C(F)(F)F)c1	109	-444	46	i	1.1	-5	-0.7
CC(C)n1cnc2cc(NCc3nc4ccccc4n3C)ccc21	108	0	129	i	0.82	-9	-0.6
CC(C)Oc1cccc(C(=O)C2CCCN(C(=O)c3ccsc3)C2)c1 (stereo unspecified)	97	.	.	i	0.97	3	.
CCOc1cc(NC(=O)CCl)c(OCC)cc1NC(C)=O	96	51	135	i	0.8	2	.
Cc1coc2c(C)c3oc(=O)c4c(c3cc12)CCC4	.	49	59	.	.	-4	-0.7
COc1ccc(CNC(=O)c2coc(=O)c3ccccc23)c(OC)c1	102	.	.	i	0.9	5	.
O=C(CCn1nc(-c2ccccc2)c2ccccc2c1=O)NN1CCOCC1	99	-18	69	i	0.98	0	.
CC(Sc1nc2ccccc2n1C)C(=O)Nc1ccc(N2CCOCC2)cc1 (stereo unspecified)	101	-20	78	i	1.1	10	.
COc1ccc(Cn2c(=O)[nH]c3cc(C(=O)NCCCN4CCCCCC4)ccc3c2=O)cc1	106	-17	113	i	1.1	10	.
O=C(O)/C=C/C(=O)Nc1ccccc1SC(F)(F)C(F)(F)C(F)(F)F	100	.	.	i	0.88	-5	.
Cc1csc(NC(=O)CSc2nnc(-c3cc(C)on3)o2)n1	98	31	108	i	1.1	-8	-0.8
COC(=O)c1ccc(NC(=S)NN2CCCCC2c2cccnc2)cc1 (stereo unspecified)	100	.	.	i	0.87	.	.
CC1CCN(S(=O)(=O)c2ccc3[nH]c(=O)cc(C(=O)O)c3c2)CC1	98	-50	75	i	0.98	-1	-0.6

Part of the list above, reformatted.
The line under a structure holds: RGS16-Gao HTS, INS promoter inh, INS promoter inh cell count, HSV augment, HSV augment primary fold, PKD1 kinase inh, GALR2 agonist
CN1C(=O)C(O)(C2OC(C)(C)CCC2=O)c2ccccc21 (stereo unspecified)
→ 109, ., ., i, 1.1, -3, -0.2
Cc1ccc(-n2nnnc2-c2cnoc2-c2cccc(F)c2)cc1
→ 71, 38, 108, i, 0.93, -1, -2.9
Cc1nn(C)c(C(=O)Nc2ccc(Br)cc2F)c1Br
→ 62, -85, 120, i, 0.88, -4, -1.6
O=C(CCCN1C(=O)CCC1=O)Nc1ccc(Cl)c(C(F)(F)F)c1
→ 109, -444, 46, i, 1.1, -5, -0.7
CC(C)n1cnc2cc(NCc3nc4ccccc4n3C)ccc21
→ 108, 0, 129, i, 0.82, -9, -0.6
CC(C)Oc1cccc(C(=O)C2CCCN(C(=O)c3ccsc3)C2)c1 (stereo unspecified)
→ 97, ., ., i, 0.97, 3, .
CCOc1cc(NC(=O)CCl)c(OCC)cc1NC(C)=O
→ 96, 51, 135, i, 0.8, 2, .
Cc1coc2c(C)c3oc(=O)c4c(c3cc12)CCC4
→ ., 49, 59, ., ., -4, -0.7
COc1ccc(CNC(=O)c2coc(=O)c3ccccc23)c(OC)c1
→ 102, ., ., i, 0.9, 5, .
O=C(CCn1nc(-c2ccccc2)c2ccccc2c1=O)NN1CCOCC1
→ 99, -18, 69, i, 0.98, 0, .
CC(Sc1nc2ccccc2n1C)C(=O)Nc1ccc(N2CCOCC2)cc1 (stereo unspecified)
→ 101, -20, 78, i, 1.1, 10, .
COc1ccc(Cn2c(=O)[nH]c3cc(C(=O)NCCCN4CCCCCC4)ccc3c2=O)cc1
→ 106, -17, 113, i, 1.1, 10, .
O=C(O)/C=C/C(=O)Nc1ccccc1SC(F)(F)C(F)(F)C(F)(F)F
→ 100, ., ., i, 0.88, -5, .
